Source: PubChem
A1 inh: caspase 3/7 activation in MEF A1-2A-BIM cells, primary screen, A1 inhibitor project, cell-based, luminescence, HTS; Caspase-Glo 3/7 luminescence, 3 h; percent of clofoctol response, vehicle zero; caspase activation, % (test concentration not listed); actives 0.066% (n = 330,000); AID 2462, 2010;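 active = over half of replicate activation scores above 10%, or exactly half above 10 with the replicate mean above 10; inconclusive = replicate mean below 10 yet half the replicates above 10; inactive = over half of replicates below 10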;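 also: wells of about 30 µL received 50 nL stock; many hits fall short of the cut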
Calb FLC: C. albicans growth inhibition with fluconazole, primary screen, CaCi-2 strain, Alamar Blue fluorescence. C. albicans CaCi-2 (fluconazole-resistant clinical isolate) + fluconazole, 48 h. growth inhibition, % (test concentration not listed). actives 0.57% (n = 300,000);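 active = most replicates above 75%; inconclusive = exactly half above 75%; inactive = most below 75%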;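 also: all wells also contain fluconazole at 8 µg/ml as a sub-toxic cotreatment; 0% = median of DMSO wells and 100% = median of geldanamycin control wells; wells of about 8 µL received 7.5 nL stock; the first replicate is given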
UCH37 DUB inh: inhibitors of human UCH37 deubiquitinase, primary screen, biochemical, Ub-AMC cleavage, fluorescence; actives 0.33% (n = 330,000); purified proteasome/UCH37; Ubiquitin carboxyl-terminal hydrolase isozyme L5 (Homo sapiens), Q9Y5K5; inhibition, % (test concentration not listed);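 active = mean of two replicates above 20%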;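 also: 0% = compound-free wells with enzyme and 100% = wells lacking proteasome; stock transfer was 100 nL into about 20 µL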
Target sequence (Q9Y5K5 whole entry, looked up): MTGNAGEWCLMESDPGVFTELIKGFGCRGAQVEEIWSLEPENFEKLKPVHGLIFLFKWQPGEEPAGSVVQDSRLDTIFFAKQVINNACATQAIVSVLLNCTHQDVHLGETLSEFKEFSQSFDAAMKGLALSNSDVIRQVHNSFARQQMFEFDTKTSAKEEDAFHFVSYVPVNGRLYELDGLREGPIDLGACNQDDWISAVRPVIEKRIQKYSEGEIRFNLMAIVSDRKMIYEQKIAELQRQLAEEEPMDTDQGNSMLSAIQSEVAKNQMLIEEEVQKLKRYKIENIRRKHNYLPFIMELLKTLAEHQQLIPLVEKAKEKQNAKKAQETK
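System: Proteasome-associated human UCH37 deubiquitinase; Input: 0.15 nM proteasome in added enzyme buffer; Also added: Ub-AMC substrate from 1 µM stock; Incubation: 30 min compound-proteasome preincubation then 25 min substrate reaction, room temperature; Detection: fluorescence, ex 355 nm, em 460 nm; Read-out: % inhibition of Ub-AMC cleavage fluorescence; Benchmarks: no-proteasome and no-compound wells.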
LANA-H2A inh: blockers of LANA interaction with H2A/H2B – biochemical, FP readout, HTS, primary screen; cell-free LANA-H2A/H2B peptide, fluorescence polarization; Protein LANA1 (Human herpesvirus 8 type P (isolate GK18)), Q9QR71; inhibition, % (test concentration not listed); actives 0.6% (n = 320,000); in the data active = inhibition mostly above about 10%, no sharp cut-off; inactive = mostly below about 6.7%;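 also: stock transfer was 7.5 nL into about 10 µL; 0% = median of vehicle wells and 100% = median of positive control wells; one replicate is shown; the record names a cut of 25% in any replicate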
RanGTP-Imp inh: inhibitors of RanGTP-importin-beta interaction, primary screen, biochemical, FRET, CFP-Ran, YFP-importin-beta, homogeneous; Ran GTPase (GTP-bound) - importin-beta complex; cell-free CFP-Ran/YFP-importin-beta FRET ratio; inhibition, % (test concentration not listed); actives 1.1% (n = 300,000);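 active = most replicates above 15%; inconclusive = exactly half above 15%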;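 also: 0% = DMSO wells and 100% = Ran loaded with GDP instead of GTP; wells of about 40 µL received 100 nL stock; the first replicate is given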
B2AR ag: beta2AR agonists driving receptor internalization, primary screen, cell-based, FAP fluorogen, flow cytometry; Beta-2 adrenergic receptor (Homo sapiens), P07550; Am2.2-beta2AR cells; reference of the scale not given here; response, % (no concentration beside the values); actives 0.43% (n = 340,000); AID 504454, 2011;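 active = response above a set limit, near 3 SD of response in nonfluorescent compounds, cut at about 42% in these data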;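 also: stock transfer was 100 nL into about 11 µL; a reference agonist was the positive control; negative values mostly stem from fluorescent compounds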
Target sequence (P07550 whole entry, looked up): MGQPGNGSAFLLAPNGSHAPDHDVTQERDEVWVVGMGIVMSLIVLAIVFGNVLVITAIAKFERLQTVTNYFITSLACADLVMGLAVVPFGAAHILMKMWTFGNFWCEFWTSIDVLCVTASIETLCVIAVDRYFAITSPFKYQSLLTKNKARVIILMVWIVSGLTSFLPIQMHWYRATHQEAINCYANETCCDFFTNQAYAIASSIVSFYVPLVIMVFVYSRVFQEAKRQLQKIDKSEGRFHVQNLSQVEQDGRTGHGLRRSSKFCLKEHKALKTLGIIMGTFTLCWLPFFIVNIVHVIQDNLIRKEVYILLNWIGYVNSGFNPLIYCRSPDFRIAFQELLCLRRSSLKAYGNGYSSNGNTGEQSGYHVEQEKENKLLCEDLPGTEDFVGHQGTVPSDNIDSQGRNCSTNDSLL
T cruzi inh: inhibitors of intracellular T. cruzi growth, primary screen, luminescence, NIH3T3 host cells; T. cruzi beta-gal in NIH3T3, 90 h; inhibition, % (no concentration beside the values); actives 1.4% (n = 300,000); AID 1885, 2009;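 active = mean inhibition across valid replicates above about 55%, limit read from the data; inconclusive = mean below that limit but half or more replicates reach it; inactive = mean below it, under half of replicates reach it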;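 also: signal also drops with host cell toxicity which is not excluded here; 0% = plate median of DMSO wells and 100% = zero luminescence signal; higher percent means less beta-gal luminescence so fewer parasites; stock transfer was 50 nL into about 50 µL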
Beta cell apopt: inhibitors of cytokine-induced beta cell apoptosis, primary screen, luminescence. actives 0.8% (n = 300,000). protection from apoptosis, % (no concentration beside the values). INS-1E cytokine-induced death, ATP luminescence, 48 h; percent of positive-control rescue, neutral wells zero;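 active = all replicates at 75% or more, or half of them and the mean; inconclusive = half reach 75% but not the mean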;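 also: 0% = cytokine-treated negative control wells and 100% = positive control rescue; higher means more ATP so stronger rescue from cytokine killing; wells of about 40 µL received 100 nL stock; the first replicate is given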
Numbers without * were called inactive; i = inactive; u = inconclusive; x = no result given. The order is random. About 4.3% of those tested had a hit in this group.

SMILES	A1 inh	Calb FLC	UCH37 DUB inh	LANA-H2A inh	RanGTP-Imp inh	B2AR ag	T cruzi inh	Beta cell apopt
Cc1ccc(C)c(N(C(=O)CS(=O)CC(=O)Nc2ccc3c(c2)OCO3)C(C)C(=O)NC2CCCC2)c1 (stereo not given)	0.7	25	-1.9	12	-1.0	-1	2	-4
COc1ccc(OC)c(-c2cc(C(=O)Nc3c(C)nn(Cc4ccccc4C)c3C)no2)c1	0.4	19	-27	-1.4	-3.9	8	19	0
CCC(=O)NCC(c1ccco1)N1CCN(c2ccc(OC)cc2)CC1 (stereo not given)	-0.6	-1	-0.6	-1.4	-2.5	3	-9	2
CS(=O)(=O)N(Cc1ccc(C(=O)NC2CCCC2)cc1)c1ccccc1	0.6	-9	-1.0	-2.8	3.6	-3	-6	6
CCOC(=O)c1ccc(NC(=O)CN2C(=O)C(CC)SC(CC)C2=O)cc1 (stereo not given)	0.3	-69	-0.5	38*	3.9	1	-17	-2
O=C(Nc1cccc(S(=O)(=O)N2CCCC2)c1)c1ccc(Cl)nc1	0.4	x	3.6	-5.6	x	-8	x	4
COc1cccc(C(=O)NCCS(=O)(=O)N2CCc3ccccc3C2)c1	-0.5	-1	3.8	4.6	-2.8	-4	0	x
COc1cc([N+](=O)[O-])ccc1NC(=O)C[n+]1ccccc1	0.6	8	6.0	-4.8	3.5	-15	-22	-2
O=C(O)c1ccccc1C(=O)NCCc1ccc(Cl)cc1	0.0	-10	-0.3	0.6	3.6	2	-10	-1
CC(OC(=O)c1cccnc1Cl)C(=O)Nc1ccc2c(c1)OCCO2 (stereo not given)	0.9	26	5.0	-0.2	-4.1	4	-28	5
CC(C)CCOc1ccc(C(=O)NNC(=O)CNC(=O)c2ccccc2F)cc1	0.7	x	-0.5	-1.6	x	16	x	6
COc1ccc(/C(C)=N/N=C(\C)c2ccc(OC)cc2OC)c(OC)c1	1.6	9	x	9.5	-3.9	-42	-4	-1
O=C(Nc1ccnn1C1CCN(Cc2ccccc2OC(F)F)CC1)c1cccc(F)c1	-0.6	-14	2.0	-3.2	9.8	-3	9	x
COc1ccc(CNC(=O)Cn2c(=O)oc3ccccc32)cc1OC	-0.1	x	1.8	0.8	x	4	x	-6
Cc1ccccc1NC(=O)C1CCCN(S(=O)(=O)c2cnc[nH]2)C1 (stereo not given)	0.5	18	9.3	-4.4	1.2	4	6	x
C/C(=N\Nc1ccccn1)c1ccc(OC(F)F)cc1	0.0	-28	x	8.5	-0.2	-23	32	0
O=C(COc1ccccc1)Nc1nnc(-c2ccc3c(c2)CCCC3)o1	0.0	82*	0.3	1.3	0.0	1	-12	-5
COc1ccc(C(=O)O/N=C(\N)Cc2ccc(Cl)cc2)cc1OC	0.0	13	x	-0.8	5.1	6	u	10
COc1ccc2c(c1)C(=O)C(=O)N2CC1COc2ccccc2O1 (stereo not given)	-0.4	14	0.2	-2.5	7.6	23	10	-2
COc1ccc(NC(=O)CO/N=C/C(=O)Nc2ccccc2C)c([N+](=O)[O-])c1	-2.1	x	x	-2.4	x	4	x	2
Cc1cc(NC(=O)c2ccc3c(c2)C(=O)N(C2CCCCC2)C3=O)no1	0.2	-6	5.2	-4.1	8.8	-3	16	9
CCc1nc(SCc2nnc(-c3ccc(C)cc3)o2)c2c(C)c(C)sc2n1	0.7	0	-0.5	0.4	-1.8	x	-1	2
CCC(C)NC(=O)c1cc2c(=O)n3ccccc3nc2s1 (stereo not given)	-1.4	4	i	-2.9	-1.1	-8	-7	1
COCCCNCCCCOc1cccc(Br)c1	1.3	-21	2.7	0.9	-3.8	-6	35	8
C/C(CC(=O)NCc1ccco1)=N\NC(=O)c1ccc(Cl)cc1Cl	0.0	-2	x	1.4	2.0	6	-2	6
CCNc1c(C(=O)O)ccc2c1C(=O)c1ccccc1C2=O	-0.6	19	5.9	-3.5	1.6	4	0	16
C/C(N)=C(/C#N)C(=O)CSc1cc(Cl)ccc1Cl	0.4	5	1.6	1.0	3.1	-27	24	-4
O=C(NNS(=O)(=O)c1ccc(F)cc1)c1cnccn1	0.8	3	-2.3	-6.4	0.5	4	-16	-1
COCCN1C(=O)N[C@@H](c2ccccc2)C(C(=O)OC)=C1C	-0.5	x	0.7	2.1	x	5	x	3
COCCNC(=O)CSCc1nc(-c2ccc(SC)cc2)oc1C	-0.4	3	-4.0	-1.2	6.2	-6	3	-5
CCOC(=O)N1CCC(Nc2c(-c3ccccc3)c(=O)c2=O)CC1	0.3	-11	7.1	1.4	6.4	-7	0	1
Cc1cccc(N2C(=O)CC(Sc3nc(C)cc(C)n3)C2=O)c1 (stereo not given)	0.8	5	-1.9	0.6	u	-8	-9	-5
O=C(NCCc1ccccc1)C(=O)Nc1ccc([N+](=O)[O-])cc1	-0.3	-17	-0.5	-1.9	0.6	-2	15	4
CCC1CCCCN1CCCNC(=O)C1CC(=O)N(CCc2ccccc2)C1 (stereo not given)	1.3	0	1.8	0.2	1.3	3	-9	0
COc1ccc(NS(=O)(=O)c2cc(NC(=O)COc3ccc(OC)cc3)ccc2N2CCOCC2)cc1	0.1	x	4.0	-0.8	x	-3	x	5
CC(=O)c1nn(-c2ccc(Cl)cc2)cc1C(=O)c1ccc(C)cc1	1.3	1	2.4	3.3	3.6	-4	4	x
CN1C(=O)/C(=C/c2cccc(Cl)c2)Sc2ccc(C(=O)N3CCOCC3)cc21	-0.5	15	-1.9	4.3	-1.7	0	-1	0
CN(C(=O)CN(c1ccccc1)S(=O)(=O)c1ccc(F)cc1)C1CCS(=O)(=O)C1 (stereo not given)	0.4	0	3.2	3.2	u	-4	-5	1
CCOC(=O)c1ccc2c(c1)nc(SCc1cn3ccsc3n1)n2CC	0.0	-2	1.3	2.0	-4.2	-13	8	10
CCCCn1c(N)c(N(CC)C(=O)c2ccccc2C(F)(F)F)c(=O)[nH]c1=O	0.2	7	2.0	4.8	-1.0	-1	-6	1
O=C(O)COCC(=O)NC1CCN(Cc2ccccc2)CC1	0.3	7	4.2	1.5	3.8	5	-9	-7
COc1ccc(CCC(=O)N/N=C/c2ccc3c(c2)OCO3)cc1	2.6	-8	x	-3.1	0.3	2	-5	1
COc1cccc(CNC(=O)c2cccnc2Sc2ccc(Cl)cc2)c1	1.1	28	0.0	6.8	1.2	8	7	4
COc1ccc(CNC(=O)c2c(C)oc3c2C(=O)c2ccccc2C3=O)cc1	-0.7	-15	11	4.4	-1.2	0	39	109*
O=C1CC(c2ccc(Cl)cc2)CC(O)=C1C=NCCO (stereo not given)	-0.1	1	-0.6	2.7	1.7	0	6	-1
COc1ccc(NC(=O)/C=C/c2c(Cl)nc3ccccn23)cc1	0.4	4	37*	-15	0.7	-10	0	1
Cc1ccc(NC(=O)CN(C)C(=O)c2ccc(Cl)c(S(=O)(=O)NCc3ccco3)c2)cc1	0.5	x	0.8	2.1	x	1	x	0
CCOC(=O)c1c(CN2CCN(CCO)CC2)n(-c2ccccc2)c2cc(Br)c(O)cc12	0.4	-7	8.0	0.3	-0.2	-1	-7	5
CC(C)(C)[C@H]1C=C(C(N)=O)O[C@@H](OCCCCO)C1	-1.4	-10	0.5	-3.1	0.0	3	0	2
CCCOc1ccc(CSC2=NCCN2)cc1[N+](=O)[O-]	0.9	-7	-1.6	-0.8	0.0	1	37	-18
CCOC(=O)CNc1ncc(C(F)(F)F)cc1Cl	0.5	-1	0.9	-3.5	-1.3	-1	-14	-7
O=C(Nc1ccccc1F)c1oc2ccccc2c1NC(=O)C1CC1	-1.7	2	-26	-0.2	4.6	3	4	8
Cc1ccc(C(=O)COC(=O)c2ccc3c(c2)C(=O)N(c2cccc4ncccc24)C3=O)cc1C	-0.4	-12	4.9	4.5	-2.1	11	-10	-2
O=C(CN1CCC(NC(=O)c2ccco2)CC1)Nc1ccccc1C(F)(F)F	0.0	-4	2.9	-1.9	2.2	-11	-19	-4
S=c1[nH]nc(-c2ccco2)n1C1CCCCC1	-0.1	-5	-2.4	2.8	-0.8	0	-6	1
O=C(Nc1ccc(S(=O)(=O)N2CCOCC2)cc1)C1CCN(S(=O)(=O)c2ccc(F)cc2)CC1	-0.3	-5	-0.6	-0.2	2.0	3	-10	13
CC(/C=C/c1ccccc1)=N\NC(=O)CCc1ccccc1	1.0	-10	x	-0.9	2.5	-1	-11	-8
CCN(CC(=O)Nc1ccc(NC(C)=O)cc1)C(=O)COc1ccccc1-c1ccccc1	-0.2	x	1.2	x	x	10	x	-3
O=C(COc1ccc(F)cc1)c1c(O)cc(O)cc1O	-0.7	10	3.2	2.9	-2.5	0	-2	-4
COc1ccc(CNC(=O)C/C(C)=N/NC(=O)c2ccc([N+](=O)[O-])cc2Cl)cc1	0.0	13	x	-1.0	4.3	-2	5	-1

2 compounds drawn at random from those above, as already listed:
SMILES	A1 inh	Calb FLC	UCH37 DUB inh	LANA-H2A inh	RanGTP-Imp inh	B2AR ag	T cruzi inh	Beta cell apopt
Cc1ccc(C(=O)COC(=O)c2ccc3c(c2)C(=O)N(c2cccc4ncccc24)C3=O)cc1C	-0.4	-12	4.9	4.5	-2.1	11	-10	-2
CC(/C=C/c1ccccc1)=N\NC(=O)CCc1ccccc1	1.0	-10	x	-0.9	2.5	-1	-11	-8

The list goes on:
SMILES	A1 inh	Calb FLC	UCH37 DUB inh	LANA-H2A inh	RanGTP-Imp inh	B2AR ag	T cruzi inh	Beta cell apopt
COC1=C/C(=C/c2c(O)c(C#N)c3ccccn23)C=CC1=O	-0.1	5	x	-2.2	-3.7	19	-10	6
O=S(=O)(Cc1ccccc1)Nn1cnnc1	-0.9	1	4.5	-5.0	-0.1	-2	-3	-4
COC(=O)C1=C(N)Oc2cc(C)n(Cc3ccncc3)c(=O)c2C1c1cccnc1 (stereo not given)	0.1	8	-0.4	1.6	-2.6	-8	23	-5
Cc1cc(Cl)cc(C)c1OCCCCCn1ccnc1	-1.2	-22	4.6	-0.6	u	1	53	-1
COc1cc(O)c(C(CC(=O)N2CCOCC2)c2ccc3c(c2)OCO3)c(OC)c1 (stereo not given)	-0.5	5	-0.1	-1.3	-2.1	-2	-19	-2
O=C(O)Cn1c(P(=O)(O)c2ccccc2)nc2ccccc21	2.1	1	1.6	3.1	1.4	7	4	-3
Clc1ccc2[nH]c3c(NCCCN4CCOCC4)ncnc3c2c1	0.6	3	-18	-2.7	-0.3	21	-8	-3
COc1ccc(/C=C2\Cc3ccccc3C2=O)cc1OC	-0.7	8	-5.9	4.2	1.1	1	-5	3
N#CCC(=O)N/N=C/c1cc([N+](=O)[O-])ccc1N1CCCC1	0.9	29	x	-5.3	-2.7	6	-4	-1
CC(=O)c1cccc(NC(=O)CN2CCN(Cc3ccccc3)CC2)c1	0.9	1	2.2	-2.1	-0.9	-6	15	x
